Screening data (PubChem BioAssay)
GALR2 ag: GALR2 receptor agonists, primary screen, cell-based. AID 803, 2007. activation, %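 (tested at 5 µM)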. GALR2-expressing cells, agonist activation read-out. Galanin receptor type 2 (Homo sapiens), O43603. 140,000 compounds, 0.48% hits;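 active means above mean plus 3 SD of all compounds, about 5% in these data, not always enough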;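 further: 0% = vehicle buffer wells and 100% = reference agonist at full effect; tested in CHO reporter cells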
Target sequence (O43603 whole entry, looked up): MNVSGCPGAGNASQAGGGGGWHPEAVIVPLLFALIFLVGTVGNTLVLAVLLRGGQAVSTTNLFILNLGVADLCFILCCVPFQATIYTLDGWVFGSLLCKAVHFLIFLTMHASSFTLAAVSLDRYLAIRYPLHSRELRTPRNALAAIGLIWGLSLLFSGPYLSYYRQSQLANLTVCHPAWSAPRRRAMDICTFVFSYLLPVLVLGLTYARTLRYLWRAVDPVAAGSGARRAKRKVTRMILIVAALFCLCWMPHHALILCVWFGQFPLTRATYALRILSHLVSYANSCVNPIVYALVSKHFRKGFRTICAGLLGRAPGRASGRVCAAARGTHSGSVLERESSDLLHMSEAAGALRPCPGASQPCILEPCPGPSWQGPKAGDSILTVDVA
HSV replic up: enhancers of HSV replication in host cells, fold increase, host cell viability. AID 1956, 2009. maximum fold increase. 220,000 compounds, 0.005% hits. HSV replication augmentation in cells;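 active means peak rise of 1.5-fold or more in the series; tested in PC3 cells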;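 further: first round at 10 µM; read as green reporter fluorescence; hits show the peak of a series up to 25 µM; 1 = signal of infected wells without compound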
PKD1 kinase inh: inhibitors of human PKD1 kinase, biochemical, fluorescence polarization; Serine/threonine-protein kinase D1 (Homo sapiens), Q15139; PKD1 kinase fluorescence polarization assay; inhibition, %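 (about 10 µM by stock and volumes)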; 200,000 compounds, 0.056% hits; AID 797, 2007;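 active means inhibition of 50% or more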;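 further: controls were vehicle for no effect and a reference inhibitor for full effect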
Insulin prom inh: inhibitors of insulin promoter-driven GFP, primary screen, imaging, TRM-6 cells (human fetal islet line), eGFP reporter, cell count; inhibition, % at 2 µM; 130,000 compounds, 0.9% hits; reporter expression induced with tamoxifen; AID 1273, 2008;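 active means inhibition above the mean plus 3 SD, with well images judged a real hit on visual review, cut at about 60% in these data, passing the limit was not always enough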
RGS16-Gao: modulators of RGS16 binding to Galphao, primary screen, biochemical, human proteins, multiplexed bead flow cytometry | Regulator of G-protein signaling 16 (Homo sapiens) + Guanine nucleotide-binding protein … | bead-based flow cytometry RGS16-Galphao binding, fluorescence; actives lie on both sides | binding response (% of control), % at 10 µM | 220,000 compounds, 0.38% hits | AID 1441, 2008;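 active means below 25% or above 175%, edge rows of some plates excepted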;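 further: Galphao activated by GDP with aluminum fluoride before binding; 100% = wells without compound and 0% = beads without RGS; some results beyond the cut were filed as inactive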
Target sequence (O15492 whole entry, looked up): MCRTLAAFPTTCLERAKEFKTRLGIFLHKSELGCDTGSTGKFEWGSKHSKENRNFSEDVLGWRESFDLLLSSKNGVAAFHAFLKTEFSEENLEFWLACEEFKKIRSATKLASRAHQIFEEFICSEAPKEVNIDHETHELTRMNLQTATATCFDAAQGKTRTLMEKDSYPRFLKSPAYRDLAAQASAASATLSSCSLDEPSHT
Target sequence (P09471 whole entry, looked up): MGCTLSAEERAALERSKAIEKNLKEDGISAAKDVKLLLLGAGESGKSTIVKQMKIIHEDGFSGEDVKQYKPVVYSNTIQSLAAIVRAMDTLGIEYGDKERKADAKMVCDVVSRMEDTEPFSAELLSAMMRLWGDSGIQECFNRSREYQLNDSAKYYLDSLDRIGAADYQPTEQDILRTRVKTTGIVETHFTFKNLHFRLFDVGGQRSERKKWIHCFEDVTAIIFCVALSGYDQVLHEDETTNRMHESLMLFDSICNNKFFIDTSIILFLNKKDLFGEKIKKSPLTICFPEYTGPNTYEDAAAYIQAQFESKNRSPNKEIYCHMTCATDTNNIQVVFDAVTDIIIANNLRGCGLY
Insulin prom inh cell count: further read-out of Insulin prom inh, marked with its call; normalized cell count, %; measured here: cell count, toxicity; reference of the scale not given here;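 cells exposed to compound for 48 h; stained nuclei by imaging scaled within each plate; lower means fewer cells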
HSV replic up primary fold: also measured in HSV replic up; calls as there; fold increase; compound at 10 µM; measured here: primary screen fold increase 10 uM; tested in PC3 cells;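 GFP signal in the first replicate; 1 = infected wells without compound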
Numbers without * were called inactive; i = inactive; · = not tested or not shown.

SMILES	GALR2 ag	HSV replic up	HSV replic up primary fold	PKD1 kinase inh	Insulin prom inh	Insulin prom inh cell count	RGS16-Gao
CC1(C)CC(=O)c2sc(NC(=O)CN3C(=O)CCC3=O)nc2C1	-2.0	i	0.95	-7	·	·	108
O=C(Nc1ccccc1)c1cc(S(=O)(=O)N2CCSCC2)ccc1Cl	0.4	i	1.1	-8	-11	138	109
O=C1/C(=C/c2ccco2)N=C(N2CCCCC2)N1c1ccccc1	0.5	i	1.2	-5	-7	113	111
C=CCn1c(C)cc(C2=NNC(=NC(C)(C)C)SC2)c1C	-1.7	i	0.87	-6	6	136	102
O=C(COC(=O)c1cc(Br)c(Br)s1)NCCC1=CCCCC1	-0.1	i	0.95	6	-30	118	101
CCCn1c2ccccc2c2nnc(SCC(=O)Nc3cc(C)on3)nc21	-0.4	i	0.89	-2	-21	104	99
CC(OC(=O)c1cc2sccc2n1C)C(=O)NCc1ccc2c(c1)OCO2 (centres undefined)	-1.3	i	1	9	23	102	98
O=C(Nc1cccnc1)c1cccs1	0.4	i	0.64	-2	24	124	109
CC(=O)NS(=O)(=O)c1ccc(NC(=O)c2cccc(S(=O)(=O)N3CCc4ccccc43)c2)cc1	·	i	1.1	4	50	98	104
Cc1ccc(CNC(=O)CCCC(=O)O)cc1	-2.9	i	0.93	9	-19	78	98
O=C(NNC(=O)c1cccc2ccccc12)c1ccc(-c2ccccc2)cc1	-0.8	i	0.86	14	·	·	98
COC(=O)c1c(NC(=O)CN2CCN(c3ccccc3)CC2)c2c(C)cccc2n1C	-1.0	i	0.87	3	·	·	97
CNc1nnc(Sc2ncccc2[N+](=O)[O-])s1	·	i	0.93	·	·	·	108
CN(C)Cc1ccccc1Sc1ccc(Br)cc1	-0.5	i	0.91	-10	-3	121	95
COc1cccc(C(=O)C2CN(c3ccccc3)CC2c2ccc(Cl)cc2)c1 (centres undefined)	0.8	i	1.1	-7	3	50	96

As a short view, part of the list above:
SMILES	GALR2 ag	HSV replic up	HSV replic up primary fold	PKD1 kinase inh	Insulin prom inh	Insulin prom inh cell count	RGS16-Gao
O=C(Nc1cccnc1)c1cccs1	0.4	i	0.64	-2	24	124	109
CC(=O)NS(=O)(=O)c1ccc(NC(=O)c2cccc(S(=O)(=O)N3CCc4ccccc43)c2)cc1	·	i	1.1	4	50	98	104
Cc1ccc(CNC(=O)CCCC(=O)O)cc1	-2.9	i	0.93	9	-19	78	98
O=C(NNC(=O)c1cccc2ccccc12)c1ccc(-c2ccccc2)cc1	-0.8	i	0.86	14	·	·	98
COC(=O)c1c(NC(=O)CN2CCN(c3ccccc3)CC2)c2c(C)cccc2n1C	-1.0	i	0.87	3	·	·	97
CNc1nnc(Sc2ncccc2[N+](=O)[O-])s1	·	i	0.93	·	·	·	108

(listing goes on)
SMILES	GALR2 ag	HSV replic up	HSV replic up primary fold	PKD1 kinase inh	Insulin prom inh	Insulin prom inh cell count	RGS16-Gao
N#C/C(=C1\CCCN1)c1ccc2ccccc2n1	0.0	i	0.98	6	·	·	99
Cc1cc(=O)oc(C)c1C(=O)Nc1cccnc1Cl	·	i	0.98	·	·	·	96
Cc1ccccc1NC(=O)CSc1nnc(-c2ccccc2)n1-c1ccccc1	-1.1	i	1.2	-3	28	101	99
CCOC(=O)Nc1oc2ccccc2c(=O)c1C	1.1	i	0.88	-3	42	28	109
CCOc1ccc(S(=O)(=O)n2nnc3ccccc32)cc1C(C)C	0.2	i	1.1	-1	-226	27	80
CC(=O)Nc1cccc(NC(=O)CSc2ncc(-c3ccccc3)[nH]2)c1	·	i	0.9	1	·	·	95
COc1cc(C2Sc3ccccc3NC3=C2C(=O)OC3)cc(OC)c1OC (centres undefined)	-3.7	i	0.95	-5	-217	46	99
COc1cc(/C=N/n2cnnc2)ccc1OC(=O)c1ccncc1	-0.7	i	1	-9	-27	94	98
CC1CCN(c2nc3ccccc3nc2N2CCC(C)CC2)CC1	-1.8	·	·	-2	-3	153	102
CC(C)c1ccc(-c2nc(N3CCCCC3)[nH]c(=O)c2C#N)cc1	-1.7	i	0.88	-7	-13	94	89
O=C(NCc1ccco1)c1ccccc1-c1ccccc1	-2.6	i	0.93	2	-7	49	101
CC(=O)c1ccc(S(=O)(=O)N2Cc3ccccc3CC2C(=O)O)cc1 (centres undefined)	·	i	1	·	·	·	102
O=C(CCl)Nc1c[nH]c(=O)[nH]c1=O	·	i	0.85	-3	·	·	116
Cc1cnc(NC(=O)c2ccco2)s1	0.5	i	0.92	0	-38	88	98
Cc1ccc(OCC(=O)N2CCC(N3CCCCCC3)CC2)cc1	-2.4	i	0.99	-4	·	·	102
CCN(CCn1cccn1)C(=O)CC1C(=O)NCCN1CC1CCCCC1 (centres undefined)	·	i	1.2	2	·	·	104
Cc1nn(-c2ccccc2)c(Cl)c1/C=N/NC(=O)C1COc2ccccc2O1 (centres undefined)	-0.6	i	0.88	3	-39	141	103
CN(C)C(=O)CSc1nnc(C23CC4CC(CC(C4)C2)C3)o1	-3.3	i	0.97	-12	-59	106	101
Cc1cc(NC(=O)CSc2cn(CCNC(=O)c3ccccc3)c3ccccc23)no1	-5.1	i	0.9	-2	·	·	105
O=C(N/N=C/c1cc([N+](=O)[O-])cc(Br)c1O)C12CC3CCC(CC(C3)C1)C2	·	i	0.95	·	·	·	98
O=C(N1CCOCC1)C12CC3CC(C1)CC(n1cnc(Cl)n1)(C3)C2	-0.6	i	0.86	-4	-50	139	102
Cc1ccc(-c2nc(NCc3ccc(F)cc3)n(S(C)(=O)=O)n2)cc1	·	i	1	8	·	·	95
O=C1CCC(C(=O)OCC(=O)c2c[nH]c3ccccc23)=NN1	-0.4	i	0.87	5	0	155	105
COc1ccc(NC(=O)CN2CCN(C3c4ccccc4-c4ccccc43)CC2)c(OC)c1	-2.8	i	0.77	0	-64	111	101
COc1ccc(-n2c(SCC(N)=O)nc3nc4c(cc3c2=O)COC(C)(C)C4)cc1	-0.4	·	·	9	-51	62	78
O=C(COC(=O)CCN1C(=O)/C(=C\C=C\c2ccccc2)SC1=S)Nc1cc(F)ccc1F	·	i	0.99	-5	·	·	96
Cc1ccc(S(=O)(=O)N2CCN(C(=O)COc3ccc(C)nc3[N+](=O)[O-])CC2)c(C)c1	·	i	1	-2	·	·	106
CC1(C)CC(=O)c2cc(OCC(=O)N3CCOCC3)ccc2O1	-1.6	i	0.58	-2	-21	102	99
Cc1cccc(-n2c3nc(=O)[nH]c(=O)c-3cc3cc([N+](=O)[O-])ccc32)c1	0.3	i	0.63	12	-29	116	101
Cc1ccc(S(=O)(=O)Cn2nnnc2CN(Cc2ccco2)Cc2cccs2)cc1	-0.1	i	1	-13	-31	56	115
Cc1cccc(C)c1OCC(=O)Nc1cccc(NC(=O)c2ccco2)c1	-0.8	i	0.86	1	-138	86	103
CNC(=O)CS(=O)CC(=O)Nc1cc(OC(C)C)c(Cl)cc1Cl (centres undefined)	·	i	0.85	0	·	·	99
Cn1cc([N+](=O)[O-])c(C(=O)Nc2ccc(-c3nc4ccccc4[nH]3)cc2)n1	0.9	i	0.84	0	·	·	168
Cc1ccc(Cl)cc1N1CCN(C(CC(C)C)c2nnnn2CC2CCCO2)CC1 (centres undefined)	-0.1	i	0.93	-3	·	·	99
Cc1cc(C(=O)Nc2ccc(N3CCOCC3)c(Cl)c2)c(C)o1	·	i	0.86	·	·	·	96
CC1(C)CC2CC(C)(CN2C(=O)c2ccc([N+](=O)[O-])cc2)C1 (centres undefined)	·	i	1	7	·	·	128
CCN(C(=O)COC(=O)c1nn(-c2ccccc2)c(=O)c2ccccc12)C1CCS(=O)(=O)C1 (centres undefined)	·	i	0.97	·	·	·	100
COc1cccc(-n2c(-c3ccc4[nH]c(C)c(C)c4c3)n[nH]c2=S)c1	·	i	0.96	-2	·	·	88
O=C(O)C1C2C=CC(C2)C1C(=O)OCc1ccccc1 (centres undefined)	-6.3	i	0.88	-10	0	137	96
N/C(=N\OC(=O)CCCOc1ccccc1)c1ccccn1	·	i	1	3	·	·	104
CCN(CC)CCCNc1nc(N)c([N+](=O)[O-])c(NCCO)n1	·	i	0.92	·	·	·	104
Cc1ccc(CNC(=O)CCc2c(C)nc3c(c(C)nn3-c3ccc(C)cc3)c2C)cc1	·	·	·	4	·	·	96
CCCN(CCC)c1nc2ccccc2nc1C(C#N)C(=O)OC(C)COC (centres undefined)	-2.9	i	1.1	9	-56	109	99
Oc1ccccc1/C=N/Nc1nc2ccccc2o1	·	i	0.71	·	·	·	111
CCc1ccccc1NC(=O)CCN1C(=O)c2ccccc2C1=O	-1.2	i	0.9	-2	-19	133	95
O=C(CNC(=O)c1ccc(Cl)cc1)OC1CCOC1=O (centres undefined)	·	i	1	-2	-18	169	99
O=C(CCc1nc2cccnc2n1Cc1ccccc1)N1CCOCC1	-2.9	i	0.89	-2	42	135	102
COc1ccc2c(c1)C(=O)N(c1ccccc1OC)C(=O)C2(C)C	-2.1	i	1.2	-3	·	·	97
Cc1c(C(=O)NCc2ccc3c(c2)cc(C)n3C)cccc1[N+](=O)[O-]	-2.9	i	1.2	2	-120	136	71
CC1CCN(CC(=O)N2c3ccccc3CCc3ccccc32)CC1	0.1	i	0.95	2	-16	234	89
Cc1ccc(NC(=S)NC(=O)/C=C/c2ccco2)c(O)c1	·	i	1	-8	·	·	85
CC(C)S(=O)(=O)CC(=O)c1ccc(Cl)cc1	·	i	0.88	3	·	·	103
CCNC(=O)c1ccc(CSc2ccc(Cl)cc2)cc1	-1.8	i	0.97	-9	-85	50	90
C=CCn1c(O)c(N=NC(=S)Nc2cccc(OC)c2)c2ccccc21	-4.5	i	0.83	-14	-267	16	104
O=C(O)c1ccc2c(c1)C(=O)N(c1cccc(C(=O)/C=C/c3ccccc3)c1)C2=O	·	i	0.94	-6	·	·	107
C/C(Cn1cnc([N+](=O)[O-])n1)=N\NC(=O)c1ccc(Br)cc1	-0.4	i	0.97	-10	-30	97	108
Cn1c(=O)oc2cc(S(=O)(=O)NCc3ccccn3)ccc21	-4.0	i	0.92	-4	·	·	76
CC(=O)Nc1ccc2c(c1)ncn2C	-0.9	i	0.92	-7	-38	113	95
CCc1ccc(-c2cc(C(=O)NN3CCOCC3)c3ccccc3n2)cc1	-1.2	i	0.94	-10	42	73	108
CCOC(=O)N1CCC(N(CCN(C)C)C(=S)Nc2cc(C)cc(C)c2)CC1	-0.6	i	0.98	-4	7	67	99
New compounds follow:
SMILES	GALR2 ag	HSV replic up	HSV replic up primary fold	PKD1 kinase inh	Insulin prom inh	Insulin prom inh cell count	RGS16-Gao
O=S(=O)(c1ccccc1)N1N=C(c2ccccc2)CC1c1ccccc1 (centres undefined)	·	i	1.2	-7	·	·	107
Cc1ccc2cccc(Oc3ccc([N+](=O)[O-])cc3[N+](=O)[O-])c2n1	-0.3	i	0.75	4	0	99	105
CC1CCN(C(=S)NC(=O)c2ccccc2)CC1	-1.3	i	0.86	1	3	150	98
COc1cccc(C2NC(=O)c3ccccc3O2)c1OCc1ccccc1F (centres undefined)	·	i	0.87	2	-27	124	100
c1ccc(-c2csc(-n3cccn3)n2)cc1	·	i	0.89	2	36	155	107
O=C(Oc1ccnc2cc(Cl)ccc12)N1CCCCCC1	0.4	i	0.89	-2	·	·	103
COCCCn1c(SCc2cc(=O)[nH]c3ccccc23)nnc1-c1ccco1	-1.4	i	0.81	-11	22	179	73
O=C(Nc1ccc([N+](=O)[O-])cc1)C(=O)Nc1cccc(C(=O)O)c1	·	i	1.2	·	·	·	107
CSc1cccc(NC(=O)C(=O)NCc2ccccc2)c1	·	i	0.86	·	·	·	102
Cc1ccc2nc(NC(=O)c3ccc4ncsc4c3)sc2c1	-0.2	i	0.94	-3	·	·	104
CCO[C@@H]1OC(C(=O)O)=C[C@H](c2coc3ccccc3c2=O)[C@H]1CCCO	·	i	1.2	3	·	·	99
C=CCOn1c(=O)c(=O)n(OCc2ccccc2)c2ccccc21	-0.5	i	0.88	12	-27	54	97
Cc1c(C(=O)O)[nH]c2c1C(=O)CC(c1ccccc1)C2 (centres undefined)	-0.8	i	1.2	1	58	121	98
O=c1cc(N2CCc3ccccc3C2)[nH]c(=O)n1-c1ccccc1Cl	-2.5	i	0.89	-10	·	·	139
COc1ccc(C(=O)Nc2ccc(S(=O)(=O)Nc3nccnc3OC)cc2)cc1OC	0.7	·	·	-23	-16	73	94
